# Source: PubChem (several laboratories)
# AF4-AF9 inh: inhibitors of AF4 peptide binding to AF9, primary screen, biochemical, AlphaScreen, biotin-AF4 peptide, FLAG-AF9, single point | 0.47% of 350,000 active | Protein AF-9 (Homo sapiens), P42568 | inhibition, % at 10 µM;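 active = every replicate reaching a set inhibition limit, whatever the replicate mean, cut at about 25% in these data; inconclusive = mean inhibition reaches that limit but some replicates miss it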;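 also: 0% = plate neutral control median and 100% = total signal loss; the record names both 10 and 1 µM as test concentration; the first replicate is given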
# Target sequence (P42568 whole entry, looked up): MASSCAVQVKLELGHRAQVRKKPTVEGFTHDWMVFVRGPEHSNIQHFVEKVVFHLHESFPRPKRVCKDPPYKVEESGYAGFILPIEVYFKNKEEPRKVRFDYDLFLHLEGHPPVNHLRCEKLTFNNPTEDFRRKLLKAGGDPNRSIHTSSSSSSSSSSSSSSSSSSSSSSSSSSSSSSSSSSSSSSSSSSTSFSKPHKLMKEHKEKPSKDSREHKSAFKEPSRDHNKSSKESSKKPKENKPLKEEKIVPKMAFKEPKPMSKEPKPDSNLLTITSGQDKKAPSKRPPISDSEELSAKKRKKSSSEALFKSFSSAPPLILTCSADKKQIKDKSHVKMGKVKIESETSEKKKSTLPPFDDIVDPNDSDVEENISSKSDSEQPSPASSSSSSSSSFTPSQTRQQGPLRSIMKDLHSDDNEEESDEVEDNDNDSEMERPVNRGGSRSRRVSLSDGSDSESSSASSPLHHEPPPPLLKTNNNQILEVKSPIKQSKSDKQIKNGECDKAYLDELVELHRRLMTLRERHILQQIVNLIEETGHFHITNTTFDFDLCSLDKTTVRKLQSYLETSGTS
# RanGTP-Impb inh: inhibitors of RanGTP-importin-beta interaction, primary screen, biochemical, FRET, CFP-Ran, YFP-importin-beta, homogeneous; Ran GTPase (GTP-bound) - importin-beta complex; cell-free CFP-Ran/YFP-importin-beta FRET ratio; inhibition, % (concentration not given with the values); 1.1% of 300,000 active; AID 2216, 2009;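 active = most replicates above 15%; inconclusive = exactly half above 15%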;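 also: 0% = DMSO wells and 100% = Ran loaded with GDP instead of GTP; wells of about 40 µL received 100 nL stock; the first replicate is given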
# rRNA inh HTS: reduced GFP signal of wild-type E. coli, primary screen, bacterial rRNA inhibitor project, GFP/RFP fluorescence, OD600, single point; AID 720706, 2013; GFP signal change (wild-type ribosome), % (concentration not given with the values); E. coli WT GFP vs humanized-ribosome RFP mutants, 24 h; stronger effect = lower value; DMSO median 0, no signal -100; 1.6% of 350,000 active;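 active = significant combined selectivity score with lowered wild-type GFP, culture density cut under 30%, mutant RFP and density less affected; inactive = any of these conditions unmet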; also: one replicate is shown; some compounds called inactive have numbers as strong as hits
# Bfl-1 A1 inh: caspase 3/7 activation in MEF A1-2A-BIM cells, primary screen, A1 inhibitor project, cell-based, luminescence, HTS; AID 2462, 2010; 0.066% of 330,000 active; caspase activation, % (test concentration not listed); Caspase-Glo 3/7 luminescence, 3 h; percent of clofoctol response, vehicle zero;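 active = over half of replicate activation scores above 10%, or exactly half above 10 with the replicate mean above 10; inconclusive = replicate mean below 10 yet half the replicates above 10; inactive = over half of replicates below 10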;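 also: wells of about 30 µL received 50 nL stock; many hits fall short of the cut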
# Beta cell apopt: inhibitors of cytokine-induced beta cell apoptosis, primary screen, luminescence; INS-1E cytokine-induced death, ATP luminescence, 48 h; percent of positive-control rescue, neutral wells zero; protection from apoptosis, % (concentration not given with the values); 0.8% of 300,000 active;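 active = all replicates at 75% or more, or half of them and the mean; inconclusive = half reach 75% but not the mean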;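 also: 0% = cytokine-treated negative control wells and 100% = positive control rescue; higher means more ATP so stronger rescue from cytokine killing; wells of about 40 µL received 100 nL stock; the first replicate is given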
# T cruzi repl: inhibitors of intracellular T. cruzi growth, primary screen, luminescence, NIH3T3 host cells. T. cruzi beta-gal in NIH3T3, 90 h. inhibition, % (test concentration not listed). AID 1885, 2009. 1.4% of 300,000 active;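 active = mean inhibition across valid replicates above about 55%, limit read from the data; inconclusive = mean below that limit but half or more replicates reach it; inactive = mean below it, under half of replicates reach it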;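 also: signal also drops with host cell toxicity which is not excluded here; 0% = plate median of DMSO wells and 100% = zero luminescence signal; higher percent means less beta-gal luminescence so fewer parasites; stock transfer was 50 nL into about 50 µL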
# Vif A3G: inhibitors of Vif binding to APOBEC3G peptide, primary screen, biochemical, TR-FRET, GST-Vif 1-94, biotin-A3G peptide, dose response retest (AID 1117319); inhibition, %; hits with a dose series show IC50 in µM; TR-FRET GST-Vif / biotin-A3G peptide binding; higher % means a stronger effect; test concentration not given here; strong numbers were not always called active; 0.57% of 260,000 active; Virion infectivity factor (Human immunodeficiency virus type 1 group M subtype B (isolate …;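 active = above the screen mean plus three standard deviations and confirmed in dose response; inconclusive = results disagree or hit not tested in dose response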;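 also: Vif residues 1-94 fused to GST binding biotinylated APOBEC3G peptide 110-148; 0% = full assay without inhibitor and 100% = GST in place of GST-Vif; retest series ran down from 100 µM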
# Calb FLC: C. albicans growth inhibition with fluconazole, primary screen, CaCi-2 strain, Alamar Blue fluorescence | 0.57% of 300,000 active | growth inhibition, % (no concentration beside the values) | C. albicans CaCi-2 (fluconazole-resistant clinical isolate) + fluconazole, 48 h;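 active = most replicates above 75%; inconclusive = exactly half above 75%; inactive = most below 75%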;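 also: all wells also contain fluconazole at 8 µg/ml as a sub-toxic cotreatment; 0% = median of DMSO wells and 100% = median of geldanamycin control wells; wells of about 8 µL received 7.5 nL stock; the first replicate is given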
# rRNA inh HTS OD600: second read-out of rRNA inh HTS, no call of its own (marks repeat the call); OD600 change, %; measured here: OD600 growth;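 optical density of the mix in the first replicate; 0 = DMSO median and -100 = no signal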
# rRNA inh HTS RFP: also measured in rRNA inh HTS; calls as there; RFP signal change, %; measured here: RFP humanized mutant strains;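 first replicate; 0 = DMSO median and -100 = no signal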
# * hit, by the source's call; u = inconclusive; x = no result given; & = joins results of further samples. This is a subset, so the mix of outcomes need not match the whole.
Molecule,AF4-AF9 inh,RanGTP-Impb inh,rRNA inh HTS,rRNA inh HTS OD600,rRNA inh HTS RFP,Bfl-1 A1 inh,Beta cell apopt,T cruzi repl,Vif A3G,Calb FLC
COc1ccc2nc(C)cc(SCC(=O)N/N=C/c3ccco3)c2c1,-5.5,-0.2,-19,-14,-2.0,0.6,-1,-20,x,1
COc1ccc(NC(=O)CN(C)C(=O)c2ccc(N3CCCC3)c([N+](=O)[O-])c2)cc1,0.0,u,2,-1,1.5,1.0,-1,-5,-9%,x
Cc1ccc(N2C(=S)N=C(Nc3ccccc3C)C23CCOC(C)(C)C3)cc1 (stereo not given),x,0.5,x,x,x,0.9,-2,-9,4%,2
CSc1nnc2n(Cc3ccccc3)c(=O)c3c4c(sc3n12)COC(C(C)C)C4 (stereo not given),x,-0.5,x,x,x,0.5,2,-4,-4%,-2
COc1ccc(N2CCN(C(=O)/C(C#N)=C/c3ccccc3)CC2)cc1,0.4,-3.2,9,7,2.8,0.3,1,-29,u,19
COc1ccc(-c2cc(C(=O)N3CCCC(C(F)(F)F)C3)c3ccccc3n2)cc1OC (stereo not given),-12,2.1,-8,-11,3.3,-0.7,-4,0,4%,3
CC(=O)Nc1ccc(/C(C)=N/NC(=O)c2ccncc2)cc1,-4.2,1.6,14,8,0.2,-1.1,0,-4,1%,0
Cc1ccc2cccc(S(=O)(=O)Nc3ccc4c(c3)OCO4)c2n1,x,2.9,x,x,x,0.0,-2,-1,32%,-27
CC1(C)CC(=O)C2=C(C1)OC(=O)C2(NC(=O)c1cccs1)C(F)(F)F (stereo not given),x,-0.3,x,x,x,-1.3,-5,-10,20%&-8%,-2
CN(CC(=O)Nc1ccc(C#N)cc1)Cc1ccc(Cl)cc1,x,-0.1,x,x,x,0.7,-5,2,5%,1
CCCC(=O)c1c[nH]c(C(=O)NCCCN2CCOCC2)c1,x,-1.7,x,x,x,-0.7,2,0,30%,-7
CCN1CCN(C(=O)C2CCN(S(=O)(=O)N3CCC4(CC3)OCCO4)CC2)CC1,5.3,2.2,3,7,-1.6,1.5,-2,-6,0%,-9
CCCNC(=S)Nc1c(C)n(C)n(-c2ccccc2)c1=O,-1.4,u,11,6,1.3,-0.1,-3,-8,-9%,3
CCOc1ccc(NC(=O)CN(C)C(=O)c2ccc(C)c(S(=O)(=O)N3CCCCC3)c2)cc1OCC,1.7,2.8,-1,-4,-0.5,0.1,-5,7,x,-8
CCc1ccccc1NC(=O)c1nnn(CC(=O)Nc2cccc(C)c2C)c1N,x,1.9,x,x,x,-0.6,-6,-5,u,-16
Cc1cc(NC(=O)COC(=O)c2cccc(S(=O)(=O)N3CCOCC3)c2)no1,x,0.7,x,x,x,-0.5,-5,-9,17%,-1
Cc1ccc(S(=O)(=O)NCCC(=O)OCC(=O)N(C)c2ccccc2)cc1,-14,-0.5,3,3,2.5,0.1,5,7,3%,2
COc1ccc(S(=O)(=O)N(Cc2ccccc2)c2ccccc2C(=O)O)cc1,-5.9,-0.6,9,-2,2.5,2.1,-13,-14,1%,9
O=C(COC(=O)CNC(=O)c1ccc(Cl)cc1Cl)NNC(=O)c1ccccc1F,0.2,x,20,13,3.6,-0.6,-9,x,-13%,x
COc1ccc(C(=O)N2CCCC(C(=O)N3CCCCCC3)C2)cc1 (stereo not given),x,-0.5,x,x,x,0.4,0,-17,81%,-1
CN(C)C(=O)COc1ccc(Oc2ccccc2)cc1,-0.8,1.7,12,14,8.0,-0.4,-2,-10,-14%,19
O=CN(c1ccccc1)c1ccc2ccccc2c1,-1.2,-6.2,-26,-26,-3.4,-0.7,-4,-6,6%,5
CCOc1ccccc1CN1CCNC(=O)C1CC(=O)N(C)CCC1CCOCC1 (stereo not given),-0.5,-3.8,3,4,-0.8,0.2,-10,-8,x,-13
O=C1C=C(c2ccc(F)cc2OCc2ccccc2)C[C@@H](c2ccc3c(c2)OCO3)C1,-2.3,x,11,6,1.7,0.2,10,x,x,x
Cc1ccc(S(=O)(=O)NC(=O)COc2ccccc2C(N)=O)cc1,x,28*,x,x,x,u,-4,10,u,u

# The last 3 records of the part above lead into the next:
Molecule,AF4-AF9 inh,RanGTP-Impb inh,rRNA inh HTS,rRNA inh HTS OD600,rRNA inh HTS RFP,Bfl-1 A1 inh,Beta cell apopt,T cruzi repl,Vif A3G,Calb FLC
CCOc1ccccc1CN1CCNC(=O)C1CC(=O)N(C)CCC1CCOCC1 (stereo not given),-0.5,-3.8,3,4,-0.8,0.2,-10,-8,x,-13
O=C1C=C(c2ccc(F)cc2OCc2ccccc2)C[C@@H](c2ccc3c(c2)OCO3)C1,-2.3,x,11,6,1.7,0.2,10,x,x,x
Cc1ccc(S(=O)(=O)NC(=O)COc2ccccc2C(N)=O)cc1,x,28*,x,x,x,u,-4,10,u,u
COCCCNC(=O)c1ccc2nc(Cc3ccc(OC)cc3)oc2c1,1.1,-2.7,-13,-6,-4.0,-1.1,-6,2,x,-1
Cc1cccc2cc(/C=N/NC(=O)[C@H]3C[C@@H]3c3ccccc3)c(Cl)nc12,-2.8,-2.1,7,8,2.1,-0.5,-3,12,1%,-8
COCCCC1CCN(C(=O)CCc2nnc(CCCCc3ccccc3)o2)CC1,-1.3,3.2,-12,-8,-2.1,0.8,-1,4,6%,12
COc1ccc(NC(=O)c2cnc(SCC(=O)NCCc3ccccc3)n(C)c2=O)cc1,2.0,-0.3,0,7,-0.6,1.0,-6,5,-31%,10
Cc1nc(NC(=O)c2ccc(Cl)cc2)sc1-c1csc(Nc2cccc(F)c2)n1,x,11,x,x,x,-1.6,3,-24,u,-2
COc1ccccc1N(CC(=O)NCc1ccc(F)cc1)C(=O)CCC(=O)Nc1nccs1,-5.0,5.4,2,8,1.6,0.6,3,8,x,7
CN(CC(=O)NC1CCN(Cc2ccccc2)CC1)S(=O)(=O)c1ccc(Br)s1,-3.1,2.8,10,3,1.3,-0.2,-3,41,x,3
Cc1ccc(NC(=O)C2CCCN(S(=O)(=O)c3c(C)noc3C)C2)nc1 (stereo not given),x,1.3,x,x,x,-0.3,-6,2,-6%,-1
O=C(O)/C=C/c1ccc([N+](=O)[O-])o1,-2.8,7.7,1,16,5.9,-0.2,3,31,28%,12
COc1ccc(CNS(=O)(=O)CCNC(=O)c2ccc3c(c2)OCO3)cc1,1.0,2.1,2,4,-0.5,-0.3,3,2,-12%,1
COC(=O)CC/C(O)=C1\C(=O)CC(C)(C)CC1=NCc1nc2ccccc2[nH]1,0.6,-1.8,3,7,0.1,0.2,-1,7,14%,19
Cc1cccc(C)c1N(CC(=O)Nc1cccc(N(C)S(C)(=O)=O)c1)S(C)(=O)=O,x,0.0,x,x,x,-0.5,-9,-7,-5%,-3
COc1ccc(NS(=O)(=O)c2cc(NC(=O)/C=C/c3cccs3)ccc2N2CCOCC2)cc1,1.8,-2.0,x,x,x,0.2,14,38,-2%,-1
O=C(O)c1ccc(-n2c(-c3ccccc3)n[nH]c2=S)cc1,x,3.4,x,x,x,0.3,-6,10,23%,22
CCS(=O)(=O)NCCc1csc(-c2ccc(OC)c(OC)c2)n1,-5.9,4.5,-4,-1,6.5,0.6,-4,4,-13%,-4
Cc1ccc2c(c1)C1CN(C)CCC1N2C(=O)c1cccc(S(=O)(=O)N2CC(C)CC(C)C2)c1 (stereo not given),9.3,4.0,-13,-3,2.9,0.1,-11,80*,10%,8
N#C/C(=C\c1ccc(-c2cccc(C(F)(F)F)c2)o1)C(=O)Nn1cnnc1,x,-1.0,x,x,x,u,-7,-7,x,1
CC(=O)Nc1ccc(C(=O)N/N=C/c2ccncc2)cc1,0.7,-2.4,5,11,-2.7,0.2,1,-5,-6%,4
O=C(Cn1cnc2ccccc2c1=O)N1CCN(S(=O)(=O)c2ccc(F)cc2)CC1,0.4,x,3,6,7.3,-0.2,2,x,x,x
CCOC(=O)c1c(NC(=O)COc2ccccc2OCC)sc2c1CC(C)(C)NC2(C)C,x,2.4,x,x,x,0.6,11,44,x,-7
COc1ccc(C2(C(=O)NCCCN(C)C)CCOCC2)cc1,5.9,-3.9,7,4,-2.3,u,-3,5,-1%,14
Cc1cccc(C(=O)NNC(=O)/C=C/C(=O)O)c1,1.4,-3.4,11,11,3.8,0.9,8,9,-8%,-1
O=C(COC(=O)C1CSC2(c3ccc(F)cc3)CCC(=O)N12)NC(=O)NC1CCCC1 (stereo not given),0.2,1.8,-3,1,6.2,-0.4,-4,-2,-7%,-5
OCC[n+]1ccc(/C=C/c2c[nH]c3ccccc23)cc1,0.2,-258,77,12,12,0.5,26,-13,x,-2
O=C(COC(=O)c1ccc(F)cc1F)Nc1cccnc1Cl,-0.1,x,12,7,3.9,0.7,-5,x,x,x
CCCOc1ccc(Cc2c(O)nc(SC)[nH]c2=O)cc1C,-1.6,6.1,5,-2,1.3,0.9,-3,-2,x,5
O=P(COCCCCCOCP(=O)(c1ccccc1)c1ccccc1)(c1ccccc1)c1ccccc1,0.6,-2.1,-25,-22,1.7,0.1,7,30,x,2
O=[N+]([O-])c1cccc(-c2csc(CS(=O)(=O)Cc3ccco3)n2)c1,1.9,u,-1,-1,0.6,1.7,-1,-8,3%,25

# Structural class: those above with a CF3 group
Molecule,AF4-AF9 inh,RanGTP-Impb inh,rRNA inh HTS,rRNA inh HTS OD600,rRNA inh HTS RFP,Bfl-1 A1 inh,Beta cell apopt,T cruzi repl,Vif A3G,Calb FLC
COc1ccc(-c2cc(C(=O)N3CCCC(C(F)(F)F)C3)c3ccccc3n2)cc1OC (stereo not given),-12,2.1,-8,-11,3.3,-0.7,-4,0,4%,3
CC1(C)CC(=O)C2=C(C1)OC(=O)C2(NC(=O)c1cccs1)C(F)(F)F (stereo not given),x,-0.3,x,x,x,-1.3,-5,-10,20%&-8%,-2
N#C/C(=C\c1ccc(-c2cccc(C(F)(F)F)c2)o1)C(=O)Nn1cnnc1,x,-1.0,x,x,x,u,-7,-7,x,1
